A488 fluor – compound fluoresces in the A488 spectral region. 59,000 tested, 0.1% active. compound autofluorescence, A488 spectral region, dye equivalency; stronger effect = higher value. max dye equivalency, M. AID 591; active = above 10 nM dye equivalent; inconclusive = 1 to 10 nM; inactive = 1 nM or less; about half of its hits are not listed in these tables;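 further: highest value over a series up to 38 µM; compound alone in buffer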
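Spectroscopic profiling in the A488 region: compounds in pH 8.0 Tris (100 mM), 15 min RT, CCD imaging with 480 nm excitation and 540 nm emission; responses normalized against A488 dye standards.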
TSHR agonist – activates the human thyroid stimulating hormone receptor; P16473; HEK293-CNG-TSHR cells (CNG channel as cAMP sensor), membrane potential dye, cAMP; Potency, µM (top dose mostly 57.1 µM), without a hit: at the highest dose activation, actives largely listed as activators; 73,000 tested, 0.48% active; AID 926; active = well fitted activation curve of enough size with the parental cells flat; inconclusive = any curve in the parental cells; inactive = parental cells flat and receptor cells flat or falling; further: potency means the concentration at half of the fitted maximal effect; % of control where 0% means no effect; weak receptor curves with flat parental cells got no call and are not listed
Target sequence (P16473 whole entry, looked up): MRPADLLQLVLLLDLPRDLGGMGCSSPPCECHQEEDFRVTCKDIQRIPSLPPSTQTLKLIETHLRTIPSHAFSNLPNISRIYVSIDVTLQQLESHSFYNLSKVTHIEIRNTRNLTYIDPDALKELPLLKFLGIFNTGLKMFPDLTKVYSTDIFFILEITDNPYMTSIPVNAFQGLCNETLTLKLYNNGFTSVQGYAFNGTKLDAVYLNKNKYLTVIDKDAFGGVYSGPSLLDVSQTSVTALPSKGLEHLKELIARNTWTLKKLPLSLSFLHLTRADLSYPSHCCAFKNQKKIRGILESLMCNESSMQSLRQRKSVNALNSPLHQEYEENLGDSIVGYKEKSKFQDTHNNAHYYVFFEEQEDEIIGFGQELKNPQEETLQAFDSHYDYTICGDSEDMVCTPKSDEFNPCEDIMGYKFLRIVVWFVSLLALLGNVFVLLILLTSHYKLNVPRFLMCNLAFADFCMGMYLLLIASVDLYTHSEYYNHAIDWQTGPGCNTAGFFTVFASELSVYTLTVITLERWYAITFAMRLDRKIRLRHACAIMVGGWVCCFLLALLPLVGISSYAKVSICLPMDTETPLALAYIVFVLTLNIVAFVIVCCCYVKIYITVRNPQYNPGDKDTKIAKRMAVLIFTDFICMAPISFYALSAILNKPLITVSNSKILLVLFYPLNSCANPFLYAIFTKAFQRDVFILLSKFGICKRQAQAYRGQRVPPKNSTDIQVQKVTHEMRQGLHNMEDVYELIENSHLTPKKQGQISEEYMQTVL
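HEK 293 cells stably expressing TSHR and a cAMP-gated CNG channel; parental CNG-only cells as counterscreen. Cells preloaded 60 min with membrane potential dye plus 100 uM RO 20-1724, then compound 30 min; fluorescence read at 590 nm.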
A647 autofl – compound fluoresces in the A647 spectral region; Compound fluorescence, A647 channel (570/671 nm), Tris buffer; max dye-equivalent concentration, M; 59,000 tested, under 10 active; active means above 1 µM dye equivalent; inconclusive means 0.1 to 1 µM; inactive means 0.1 µM or less;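 further: values scaled relative to a standard on each plate; highest value over a series up to 38 µM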
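Fluorescence read (570 nm ex, 671 nm em) after 15 min RT incubation of compounds in 100 mM Tris buffer, pH 8.0; values expressed as dye-equivalent concentration against a six-point A647 standard series on each plate.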
AID923 – qHTS Assay for Allosteric/Competitive Inhibitors of Caspase-1: Spectroscopic Profiling in AFC Spectral Region | 75,000 tested, 1.1% active | compound fluorescence, AFC spectral region (405/520 nm); almost no hit is shown here | Potency, µM (doses to about 57.5 µM), inactives show at the top dose fluorescence increase, usual class: activators | AID 923, 2007; active means well fitted activation curve with a large enough effect; inconclusive means small, poorly fitted or top-dose-only effect;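 further: potency means the concentration at half of the fitted maximal effect; 0% is about no effect; scaled to a free AFC standard on each plate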
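Compound autofluorescence profiled at 405 nm ex/520 nm em during kinetic caspase 1 run (50 nM enzyme, 5 uM Ac-WEHD-AFC, HEPES pH 7.5, 10 mM DTT). Titration up to 57 uM; baseline from regression intercept, normalized to AFC standard curve.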
Resorufin fluor – compound fluoresces in the resorufin spectral region; Compound fluorescence, resorufin region 547/598 nm, buffer; stronger effect = higher value; max dye-equivalent concentration, M; 59,000 tested, 0.04% active; active = above 10 nM dye equivalent; inconclusive = 1 to 10 nM; inactive = 1 nM or less; a few of its hits are not listed in these tables; further: highest value over a series up to 38 µM
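Intrinsic fluorescence profiled in the resorufin window (ex 547 nm, em 598 nm) after 15 min at room temperature in pH 8.0 Tris buffer (100 mM); responses normalized against a six-point resorufin standard series as dye-equivalent concentration.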
Starred values were filed as active, the others as inactive; i = inactive; ? = inconclusive; · = not tested or not shown; & = joins results of further samples; [ ] = another dose, or the depositor's remark. The list is partial; rates above refer to the full screens.

SMILES	A488 fluor	TSHR agonist	A647 autofl	AID923	Resorufin fluor
CN1CC(=O)N(C)c2nc(Br)n(C)c2C1=O	i	-1%	2.4e-08	0.6%	i
CCn1cc(Br)c(C(=O)Nc2cccc(SC)c2)n1	i	5%	1.9e-08	1.3%	i
COC(=O)C[C@@H]1O[C@H]1[C@H](C)[C@@H](OC)C(C)C	·	5%[11.4 µM]	·	1.5%[11.5 µM]	·
CCOC(=O)c1[nH]c(=O)[nH]c1CSc1nc(C)cc(C)n1	·	-1%[11.4 µM]	·	2.2%	·
CC(C)(C)n1nnnc1CN1C2CCC1CC(NC(=O)Nc1ccccc1)C2 (stereo not drawn)	i	6%	2.8e-08	0.7%	i
O=C(O)c1cc(-c2ccccc2)n(-c2ccccc2C(=O)O)n1	i	9%	5.4e-09	1.6%	i
COc1ccc(OC)c(NS(=O)(=O)c2ccc(SC)cc2)c1	i	?	1e-09	0.4%	i
CCOC(=O)C1=C(Nc2ccccc2)OCC1=O	i	-11%	2.6e-09	0.0%	i
CCOC(=O)C1=C(C)NC(SCc2cc(=O)[nH][nH]2)=C(C#N)C1c1cccs1 (stereo not drawn)	i	-34%[inhibitor]	3.7e-09	-1.0%	i
CCOc1cccc(-c2nnc3sc(-c4ccc(C)cc4)nn23)c1	i	·	1e-09	·	i
Cc1cccc(N(C)S(=O)(=O)c2ccc3[nH]c(=O)c(=O)[nH]c3c2)c1	i	-2%	1.6e-09	0.5%	i
COc1cc(NS(=O)(=O)c2ccc(NC(=O)C34CC5CC(CC(C5)C3)C4)cc2)ncn1	·	-4%	·	0.0%	·
CC(C)CCSc1nc2c(c(=O)[nH]c(=O)n2C)n1CCc1ccccc1	i	?	1.6e-08	-0.8%	i
Oc1c(Cl)cc(Cl)cc1CNc1ccc(Br)cn1	i	·	3.3e-08	·	i
Clc1ccccc1CNCC1CCC(CNCc2ccccc2Cl)CC1 (stereo not drawn)	·	-3%	·	0.4%	·
COc1ccc(Br)cc1C1SCCN1S(C)(=O)=O (stereo not drawn)	i	11%	1.4e-08	-0.2%	i
c1ccc(/C(=N/Nc2nc3ccccc3s2)c2ccccn2)cc1	i	-3%[11.4 µM]	1e-08	0.1%[11.5 µM]	i
CCOn1c(=O)c(-c2cc3ccccc3o2)[n+]([O-])c2ccccc21	?	-23%	1.4e-08	12%	i
CCN1C(=O)c2ccccc2S(=O)c2ccc(C(=O)N3CCCC3)cc21 (stereo not drawn)	·	4%	·	-2.2%	·
Cc1nc(N2CCN(Cc3ccc4c(c3)OCO4)CC2)nc2c1C(=O)CC(c1ccco1)C2 (stereo not drawn)	i	?	7.4e-09	0.7%	i
CC(C)Sc1nc2c(c(=O)n1C)SC(C)C2 (stereo not drawn)	·	16%	·	-3.0%	·
CCOc1ccc(S(=O)(=O)N(C)C)cc1-c1nc2c(C(C)(C)C)nn(C)c2c(=O)[nH]1	i	·	1e-09	·	i
NCCNc1cccc2ccccc12	·	?	·	4.8%	·
COc1ccccc1N1C(=O)C2CC(C)=C(C)CC2C1=O (stereo not drawn)	i	-5%	1.8e-09	0.2%	i
COc1cc(C)c(C(C)C)cc1S(=O)(=O)N1CCOCC1	i	4%	6.6e-09	-1.3%	i
(cont.)
SMILES	A488 fluor	TSHR agonist	A647 autofl	AID923	Resorufin fluor
COCCCNC(=O)CCCn1c(=O)c2ccccc2n(CC(=O)Nc2c(C)cccc2C)c1=O	i	3%	1e-09	0.9%	i
COc1ccc(S(=O)(=O)Cc2ccc(C(=O)N3CCOCC3)o2)cc1	·	1%	·	-1.5%	·
CC(=O)NC1(c2cccc(F)c2)CCN(CC(=O)NC2CCCCC2)CC1	i	-3%	2.6e-08	0.3%	i
Cn1c(-n2c(CCCN3C(=O)c4ccccc4C3=O)nc3ccccc3c2=O)nc2ccccc21	·	2%	·	3.1%	·
COc1ccc(-c2nc(C)sc2CC(=O)O)cc1	i	0%	4.5e-09	2.0%	i
Cc1cc(NC(=O)C2CC=CCC2C(=O)O)no1 (stereo not drawn)	i	9%	3.2e-09	-1.7%	i
CCOc1ccccc1NC(=O)C1CCCN1C(=O)OCc1ccccc1 (stereo not drawn)	i	·	7.2e-09	0.6%	i
CC12CCC(C(=O)NCc3ccc4c(c3)OCO4)(CC1=O)C2(C)C (stereo not drawn)	i	14%	1.5e-09	-0.1%	i
OCCOCCNc1ncnc2c1cnn2-c1ccc(Cl)cc1	i	·	1.6e-08	·	i
O=C(CCS(=O)(=O)c1ccc(Br)cc1)N1CCN(c2ccccc2F)CC1	i	4%	2.2e-08	2.6%	i
CCCn1c2c(c(O)c(C(=O)Nc3ccc(OC)cc3)c1=O)CCCC2	i	0%	1.6e-09	-0.5%	i
O=C(c1ccncc1)N1CCC2(CCCN(C(c3ccccc3)c3ccccc3)C2)CC1	i	?	1e-08	3.5%	i
Cc1ccc(-c2nn(CC(=O)O)c(=O)c3ccccc23)cc1	·	1%	·	3.6%	·
COc1ccc(CNC(=O)C2CC(c3ccc(F)cc3)=NO2)cc1 (stereo not drawn)	i	19%	2.8e-09	-0.1%	i
Cc1ccc(S(=O)(=O)N(C)CC(=O)OCc2nnc(-c3ccccc3)o2)cc1	i	7%	3.9e-09	0.1%	i
CCN(CCCNC(=O)CCNC(=O)Cn1ccc2ccccc2c1=O)c1ccccc1	i	-4%	4e-08	0.6%	i
CC(=O)Nc1ccc(NS(=O)(=O)C(F)(F)F)cc1	·	3%	·	1.7%	·
CCOC(=O)c1ccc(Nc2cc(C)nc3ncnn23)cc1	i	-25%	4.1e-08	-0.3%	i
CCSc1nnc(NC(=O)C(C)(C)C)s1	·	7%	·	1.8%	·
CCN(CC)CCCN1C(=O)C(O)=C(C(=O)c2sc(C)nc2C)C1c1ccc(C)o1 (stereo not drawn)	i	0%	3.3e-08	-0.3%	i
Cn1ccnc1	i	10%	7.5e-09	-1.0%	i
COc1ccc(Cl)cc1NC(=O)c1cnc2sccn2c1=O	·	-4%	·	3.7%	·
Cc1ccc(-c2nnc3n2N=C(c2ccc(Br)cc2)CS3)cc1	·	11%	·	-1.4%	·
O=C(NCN1CCc2ccccc2C1)c1ccccc1	i	-5%	1.6e-08	0.8%	i
CCOC(=O)c1cccc(NC(=O)CSc2nnc(COc3ccc(Cl)cc3)o2)c1	i	-3%	2e-08	-2.6%	i
Continuation.
SMILES	A488 fluor	TSHR agonist	A647 autofl	AID923	Resorufin fluor
O=C(CCCN1C(=O)c2ccccc2C1=O)Oc1ccc(F)cc1	i	1%	1e-09	-1.5%	i
O=S(=O)(c1ccc(F)cc1)N(CCO)CC(O)Cn1c2ccccc2c2ccccc21 (stereo not drawn)	i	-14%	1e-09	-2.6%	i
CC(=O)NC1CCN(C(=O)N2CCCC2)CC1	i	-1%	2.5e-08	-1.7%	i
COc1ccc(CN2CCCC(C(=O)N3CCCC3)C2)cc1 (stereo not drawn)	i	-6%	1e-09	-1.1%	i
Cc1cc(C(F)(F)F)n2ncc(-c3ccccc3)c2n1	i	7%	1e-09	-1.5%	i
Cc1cc(NC(=O)C2COc3ccccc3O2)no1 (stereo not drawn)	·	0%	·	3.4%	·
NS(=O)(=O)c1cc2c(cc1Cl)NCNS2(=O)=O	i	-1%	1.5e-08&2.1e-08&1e-09	5.1%	i
CN1C2CCC1CC(OC(=O)c1c[nH]c3ccccc13)C2 (stereo not drawn)	i	6%	1e-09	1.9%	i
Cc1ccc2nc(NC3=NCN(Cc4cccnc4)CN3)nc(C)c2c1	i	4%	4e-09	1.0%	i
O=c1nc(NC2CCCC2)ccn1Cc1cccc(Br)c1	i	8%	3.2e-08	-0.5%	i
CCOc1cc(S(=O)(=O)Nc2ccccn2)ccc1F	i	?	1.9e-09	-0.1%	i
C=CCc1ccccc1OC[C@H](O)CNC(C)C	i	-5%[25.6 µM]	3.5e-08&3.9e-09	4.2%[25.7 µM]	i
COCCCNC(=O)CN1C(=O)CSc2ncccc21	·	-1%	·	3.7%	·
Cc1ccc(C(=O)NC2CCN(C(=O)N3CCOCC3)CC2)cc1	i	1%	3.6e-08	0.9%	i
COc1cc(S(=O)(=O)N2CCCCC2)ccc1NC(=O)c1ccc(F)cc1	i	-15%	1e-09	5.7%	i
CCOC(=O)N1CCC(NC(=O)Cc2cn(C)c3ccccc23)CC1	i	-3%	1.8e-09	-0.7%	i
Cc1ccc(C)c(OCC(=O)Nc2cc(C)on2)c1	·	1%	·	-0.1%	·
CCCCn1nnc(NC(=O)COc2cc(C)ccc2C(C)C)n1	i	1%	1e-09	-1.4%	i
CC(C)COC(=O)Nc1ccccc1C(=O)N1CCOCC1	i	3%	2.7e-08	2.4%	i
CCOC(=O)C1CCN(C(=O)CN(Cc2ccc(Cl)cc2)S(C)(=O)=O)CC1	i	25%	2.5e-09	1.4%	i
CCOC(=O)NC1(C(F)(F)F)C(=O)NC(C)=C1C(=O)OC (stereo not drawn)	i	-5%	2.5e-08	1.0%	i
CCOC(=O)C1CCCN(C(=O)c2ccc(CS(=O)(=O)Cc3ccccc3C)o2)C1 (stereo not drawn)	i	11%	1e-09	-0.3%	i
COc1ccccc1OCC(=O)Nc1ccc(S(=O)(=O)NC(C)=O)cc1	·	-21%	·	0.1%	·
CCOC(=O)N1CCC(NC(=O)Cn2nc(Cc3ccncc3)c3ccccc3c2=O)CC1	·	0%	·	1.8%	·
Cn1c(SCc2ccccc2)nnc1C1CCCNC1 (stereo not drawn)	i	0%	4.7e-08	0.6%	i

3 of the compounds above, with each value named:
COc1cc(C)c(C(C)C)cc1S(=O)(=O)N1CCOCC1
- A488 fluor = i
- TSHR agonist = 4%
- A647 autofl = 6.6e-09
- AID923 = -1.3%
- Resorufin fluor = i

COCCCNC(=O)CCCn1c(=O)c2ccccc2n(CC(=O)Nc2c(C)cccc2C)c1=O
- A488 fluor = i
- TSHR agonist = 3%
- A647 autofl = 1e-09
- AID923 = 0.9%
- Resorufin fluor = i

COc1ccc(S(=O)(=O)Cc2ccc(C(=O)N3CCOCC3)o2)cc1
- A488 fluor = ·
- TSHR agonist = 1%
- A647 autofl = ·
- AID923 = -1.5%
- Resorufin fluor = ·

Reformatted with two lines to a compound: entries from further up
Order of results – A488 fluor | TSHR agonist | A647 autofl | AID923 | Resorufin fluor
CC(C)Sc1nc2c(c(=O)n1C)SC(C)C2 (stereo not drawn)
 : · | 16% | · | -3.0% | ·
CCOc1ccc(S(=O)(=O)N(C)C)cc1-c1nc2c(C(C)(C)C)nn(C)c2c(=O)[nH]1
 : i | · | 1e-09 | · | i

(continued)
SMILES	A488 fluor	TSHR agonist	A647 autofl	AID923	Resorufin fluor
CSc1oc(-c2ccccc2)nc1S(=O)(=O)c1ccc(C)cc1	·	7%[11.4 µM]	·	-0.5%	·
CC(C)(C)NC[C@H](O)COc1cccc2c1CCC(=O)N2	i	-12%[25.6 µM]	3.3e-09	-0.8%[25.7 µM]	i
CCC(Sc1nc2cc3c(cc2c(=O)n1Cc1ccco1)OCO3)C(=O)Nc1cccc(OC)c1 (stereo not drawn)	i	29%	1e-09	1.1%	i
COc1cccc(Nc2c(F)c(F)c(F)c(F)c2C(=O)O)c1	i	?	3.6e-08	-0.7%	i
O=C(Nc1ccn(Cc2ccc(F)cc2)n1)c1ccncc1	i	·	1e-09	-0.6%	i
Cn1cccc1C(=O)N1CCC[C@@]2(CCN(C(=O)Nc3cccc(F)c3)C2)C1	i	7%	2e-08	3.7%	i
COC(=O)c1cc(OC)c(OC)cc1NC(=O)c1cccnc1	i	5%	4.6e-09	4.9%	i
CC1CCc2ccccc2N1C(=O)c1cccs1 (stereo not drawn)	i	?	1.9e-08	-2.4%	i
COc1cc2c(cc1OC)CN(Cc1cc(=O)n3cc(C)ccc3n1)CC2	i	29%	3.8e-09	-1.0%	i
CN(CCCNC(=O)C1CCC(=O)N1Cc1ccc(F)cc1)c1ccccc1 (stereo not drawn)	·	?	·	2.7%	·
